T cruzi repl: T. cruzi replication inhibition | inhibition, % (concentration not given with the values) | T. cruzi beta-gal in NIH3T3, luminescence, 90 h | 300,000 tested, 1.4% active;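 active = mean inhibition across valid replicates above about 55%, limit read from the data; inconclusive = mean below that limit but half or more replicates reach it; inactive = mean below it, under half of replicates reach it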;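 note: signal also drops with host cell toxicity which is not excluded here; 0% = plate median of DMSO wells and 100% = zero luminescence signal; higher percent means less beta-gal luminescence so fewer parasites; stock transfer was 50 nL into about 50 µL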
AF4-AF9 inh: blocks AF4 peptide binding to human AF9; P42568; AlphaScreen, biotin-AF4 peptide binding to FLAG-AF9; inhibition, % at 10 µM; 350,000 tested, 0.47% active; AID 651704;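 active = every replicate reaching a set inhibition limit, whatever the replicate mean, cut at about 25% in these data; inconclusive = mean inhibition reaches that limit but some replicates miss it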;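 note: 0% = plate neutral control median and 100% = total signal loss; the record names both 10 and 1 µM as test concentration; the first replicate is given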
Target sequence (P42568 whole entry, looked up): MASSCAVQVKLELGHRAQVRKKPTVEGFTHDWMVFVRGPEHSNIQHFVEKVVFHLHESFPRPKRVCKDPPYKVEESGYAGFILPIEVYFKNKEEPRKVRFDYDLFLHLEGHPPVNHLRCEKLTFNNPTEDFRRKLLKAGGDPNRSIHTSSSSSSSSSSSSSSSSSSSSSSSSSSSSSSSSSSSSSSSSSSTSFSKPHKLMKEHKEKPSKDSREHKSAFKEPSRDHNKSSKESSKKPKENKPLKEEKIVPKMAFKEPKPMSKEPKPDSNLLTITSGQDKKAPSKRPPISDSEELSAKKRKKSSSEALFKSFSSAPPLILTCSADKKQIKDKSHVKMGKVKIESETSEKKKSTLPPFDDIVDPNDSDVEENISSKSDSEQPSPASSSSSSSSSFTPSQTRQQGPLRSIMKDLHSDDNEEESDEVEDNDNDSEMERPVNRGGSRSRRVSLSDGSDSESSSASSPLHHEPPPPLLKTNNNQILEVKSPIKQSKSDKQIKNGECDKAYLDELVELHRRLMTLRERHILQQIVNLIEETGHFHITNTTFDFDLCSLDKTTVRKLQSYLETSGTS
Ecoli rRNA inh: inhibits bacterial ribosomal RNA function over humanized ribosomes; E. coli WT GFP vs humanized-ribosome RFP mutants, fluorescence, 24 h; stronger effect = lower value; DMSO median 0, no signal -100; 350,000 tested, 1.6% active; GFP signal change (wild-type ribosome), % (concentration not given with the values);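 active = significant combined selectivity score with lowered wild-type GFP, culture density cut under 30%, mutant RFP and density less affected; inactive = any of these conditions unmet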; note: one replicate is shown; some compounds called inactive have numbers as strong as hits
RanGTP-Imp inh: inhibitors of RanGTP-importin-beta interaction, primary screen, biochemical, FRET, CFP-Ran, YFP-importin-beta, homogeneous | cell-free CFP-Ran/YFP-importin-beta FRET ratio | inhibition, % (no concentration beside the values) | 300,000 tested, 1.1% active;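 active = most replicates above 15%; inconclusive = exactly half above 15%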;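 note: 0% = DMSO wells and 100% = Ran loaded with GDP instead of GTP; wells of about 40 µL received 100 nL stock; the first replicate is given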
Calb FLC: C. albicans growth modulation with fluconazole; C. albicans CaCi-2 (fluconazole-resistant clinical isolate) + fluconazole, Alamar Blue growth, 48 h; growth inhibition, % (no concentration beside the values); 300,000 tested, 0.57% active;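 active = most replicates above 75%; inconclusive = exactly half above 75%; inactive = most below 75%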;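 note: all wells also contain fluconazole at 8 µg/ml as a sub-toxic cotreatment; 0% = median of DMSO wells and 100% = median of geldanamycin control wells; wells of about 8 µL received 7.5 nL stock; the first replicate is given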
ALR inh: inhibitors of human sulfhydryl oxidase ALR | P55789 | 290,000 tested, 3.8% active | purified ALR, DTT oxidation, H2O2 HRP-luminol luminescence | inhibition, % (no concentration beside the values);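 active = mean and each replicate at 75% or more; inconclusive = only one of the two met; inactive = neither met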;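 note: stock transfer was 7.5 nL into about 7.5 µL; 0% = neutral wells and 100% = wells with inactivated enzyme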
Target sequence (P55789 whole entry, looked up): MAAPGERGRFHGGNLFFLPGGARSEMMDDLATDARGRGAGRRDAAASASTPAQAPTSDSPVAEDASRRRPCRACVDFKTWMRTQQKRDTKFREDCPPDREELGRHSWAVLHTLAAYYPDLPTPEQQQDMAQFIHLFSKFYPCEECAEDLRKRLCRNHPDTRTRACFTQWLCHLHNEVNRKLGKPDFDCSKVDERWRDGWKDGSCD
Beta apoptosis: beta cell apoptosis inhibition; protection from apoptosis, % (no concentration beside the values); AID 435005; 300,000 tested, 0.8% active; INS-1E cytokine-induced death, ATP luminescence, 48 h; percent of positive-control rescue, neutral wells zero;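 active = all replicates at 75% or more, or half of them and the mean; inconclusive = half reach 75% but not the mean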;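 note: 0% = cytokine-treated negative control wells and 100% = positive control rescue; higher means more ATP so stronger rescue from cytokine killing; wells of about 40 µL received 100 nL stock; the first replicate is given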
FGF22 binding: FGF22 (human) thermal shift binding | Q9HCT0 | recombinant FGF22 thermal shift, SYPRO orange fluorescence; percent of sucrose octasulfate shift, DMSO zero | calls only at 9.99 µM | 340,000 tested, 1.5% active | AID 651658;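 active = melting point raised past a set limit in the mean and every replicate; inconclusive = no clear call; three in four hits are not shown here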
Target sequence (Q9HCT0 whole entry, looked up): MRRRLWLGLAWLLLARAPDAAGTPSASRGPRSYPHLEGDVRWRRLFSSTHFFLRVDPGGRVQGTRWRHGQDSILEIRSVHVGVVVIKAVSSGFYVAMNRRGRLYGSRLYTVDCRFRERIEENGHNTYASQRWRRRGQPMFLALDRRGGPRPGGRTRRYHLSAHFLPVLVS
Ecoli rRNA inh OD600: second read-out of Ecoli rRNA inh, no call of its own (marks repeat the call); OD600 change, %; measured here: OD600 growth;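 optical density of the mix in the first replicate; 0 = DMSO median and -100 = no signal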
Ecoli rRNA inh RFP: further read-out of Ecoli rRNA inh, marked with its call; RFP signal change, %; measured here: RFP humanized mutant strains;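 first replicate; 0 = DMSO median and -100 = no signal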
Active calls of the source: *; i = inactive; ? = inconclusive; / = no result given; & = joins results of further samples.

Screens in order: T cruzi repl	AF4-AF9 inh	Ecoli rRNA inh	Ecoli rRNA inh OD600	Ecoli rRNA inh RFP	RanGTP-Imp inh	Calb FLC	ALR inh	Beta apoptosis	FGF22 binding
> COc1ccc(N2CCN(C3CCCN(Cc4ccccc4OCCO)C3)CC2)cc1 (centres undefined)
 : -7	2.8	12	11	0.7	0.0	0	?	/	i
> COc1ccc(/C(N)=N/OC(=O)Cc2ccc(C)cc2)cc1
 : -8	-4.7	6	10	2.2	3.5	-22	3	-2	i
> Cc1cc(C)nc(SCC(=O)Nc2ccc(S(=O)(=O)Nc3ncccn3)cc2)n1
 : -8	-1.9	5	-5	-5.5	1.7	15	-10	0	/
> O=C(CCSCCC(=O)NCC1CCCO1)NCC1CCCO1 (centres undefined)
 : -21	/	/	/	/	-3.9	-9	2	-4	/
> O=C(CSc1nc(Nc2ccccc2)nc(N2CCOCC2)n1)Nc1ccccc1Cl
 : 41	/	/	/	/	?	-4	-4	14	/
> COc1cc(/C=N/NC(=O)COc2ccccc2[N+](=O)[O-])ccc1OC(=O)c1ccco1
 : -4	5.1	-4	-9	-2.0	1.7	-17	27	2	i
> CCOc1ncnc2c1[nH]c1ccccc12
 : -4	-0.5	-6	-9	0.2	-1.0	0	-9	5	i
> CN=C1SC(CC(=O)Nc2ccc(C(=O)O)cc2)C(=O)N1C (centres undefined)
 : -12	/	/	/	/	3.4	-14	3	1	/
> Cc1cc(=O)oc2ccc(OCC(=O)N(Cc3ccc(F)cc3)Cc3ccco3)cc12
 : -4	/	/	/	/	-1.7	14	5	4	/
> CCOC(=O)C1C2C=CC3(CN(c4cccc(Cl)c4)C(=O)C13)O2 (centres undefined)
 : -10	1.3	14	14	0.6	0.6	-2	/	-6	i
> CC(/C=N/NC(=O)c1cccnc1)=C\c1ccccc1
 : -14	0.1	/	/	/	0.9	38	-13	5	i
> Cc1cccc(NC(=O)c2ccccc2NC(=O)C2CCCCC2)c1C
 : 0	3.2	24	15	2.1	-1.9	-7	-7	2	i
> COc1ccc(C=O)cc1OS(=O)(=O)c1ccccc1[N+](=O)[O-]
 : 6	6.2	1	2	9.5	-0.9	-9	-23	-2	i
> Cc1ccc(NC(=O)c2ccc(S(=O)(=O)C(F)F)cc2)c(C)c1
 : -1	/	/	/	/	0.9	-11	0	0	/
> O=S(=O)(c1ccc(-c2nnco2)cc1)N1CCCCC1
 : -11	-5.4	4	7	-1.4	-5.0	-1	-13	/	i
> COc1cccc(Oc2ccc(C(F)(F)F)cc2NC(=O)CCc2nc3ccccc3c(=O)[nH]2)c1
 : 7	3.5	-15	-36	3.3	1.7	-9	-1	/	i
> COc1nc2ccccc2nc1N1CCN(c2ccc(F)cc2)CC1
 : -7	-1.7	5	16	-3.0	-2.3	4	3	4	i
> COc1ccc(N(C(=O)c2ccco2)C(C(=O)NC2CCCC2)c2cccs2)cc1OC (centres undefined)
 : 19	/	/	/	/	-1.6	0	-34	0	/
> O=[N+]([O-])c1ccc(COc2ccc(CNc3ccccc3)cc2)cc1
 : -20	/	/	/	/	-3.5	-1	-10	-9	/
> O=C(COc1ncnc2c(Cl)cc(Cl)cc12)N1CCN(S(=O)(=O)c2ccccc2)CC1
 : 3	/	/	/	/	5.3	5	-17	0	/
> Cc1ccc(-c2csc(N3CCN(CCCn4c(C(F)(F)F)nc5ccccc54)CC3)n2)cc1
 : 3	0.4	3	3	20	4.6	8	-5	0	i
> COCCNC(=O)C(c1ccc(C)cc1)N(Cc1cccs1)C(=O)CCC(=O)Nc1ccccn1 (centres undefined)
 : 15	0.4	3	7	0.9	3.3	-2	-2	-4	i
> COc1cc2cc(C#N)c(SCC(=O)Nc3cc(C)on3)nc2cc1OC
 : 3	0.6	-10	-5	-3.0	0.0	-2	-5	4	i
> COc1cc(C(=O)N/C(=C\c2cn(C)c3ccccc23)C(=O)N2CCN(C)CC2)cc(OC)c1OC
 : -8	-2.3	6	-5	-3.2	4.3	14	/	/	i
> CCOc1ccc(CN2CCN(CCCn3cccn3)CC2CCO)cc1 (centres undefined)
 : 12	4.8	9	10	0.1	-2.9	0	/	-11	i
> CN(C)CCNc1oc(COc2ccc(Cl)cc2)nc1C#N
 : 11	/	/	/	/	0.3	1	2	-6	/
> COc1ccc(CNC(=O)C2CCN(S(=O)(=O)c3cccc4nonc34)CC2)cc1
 : -2	0.2	10	11	1.1	-2.2	3	-23	-5	i
> Cc1ccccc1C(=O)NCC(=O)NNC(=S)NC(=O)c1ccccc1
 : 2	/	/	/	/	6.0	-1	98*	1	/
> CCOC(=O)N1CCN(CC(=O)n2c(C)c(C)c3ccccc32)CC1
 : 0	/	/	/	/	-2.1	-5	-12	-4	/
> Cc1[nH]nc2c1C(c1cn[nH]c1-c1ccc(F)cc1)C(C#N)=C(N)O2 (centres undefined)
 : 4	/	/	/	/	-0.8	6	92*	5	/
> O=C(Nc1cccc(Cl)c1N1CCOCC1)c1cccnc1Cl
 : -2	-1.6	-10	-9	-0.8	7.0	5	-11	-2	/
> Cc1ccc(Nc2cc(C(=O)NCCCN3CCOCC3)c3ccccc3n2)c(C)c1
 : 21	/	/	/	/	-0.2	2	7	-2	/
> COc1ccc(OC)c(-c2cc(C(=O)N3CCc4ccccc4C3)no2)c1
 : 7	/	/	/	/	-1.5	-12	9	-1	/
> CCOC(=O)c1c(C)[nH]c(NC(=O)NNC(=O)c2ccccc2Cl)c1C
 : /	-1.9	8	7	2.2	/	/	6	3	i
> COc1ccc(/C(=C/Nc2cccc(Br)c2)C(C)=O)cc1OC
 : 4	17	-56	-59	-8.6	0.5	1	13	-9	i
> O=P(c1ccccc1)(c1ccccc1)C(O)c1ccco1 (centres undefined)
 : -6	/	/	/	/	2.3	1	1	-12	/
> COc1cc(C(=O)Nc2ccc3c(c2)N(C(=O)CN2CCN(C)CC2)c2ccccc2CC3)cc(OC)c1OC
 : 10	5.6	-5	-11	2.7	-0.1	3	3	-10	i
> COc1cccc(C2c3[nH]c4ccccc4c3CCN2Cc2ncc[nH]2)c1 (centres undefined)
 : 9	14	-25	-22	5.3	-3.4	5	11	2	i
> O=C(NCc1ccccn1)Nc1cccc(F)c1
 : 4	-0.9	8	15	0.9	3.5	3	-5	-8	i
> CCOc1ccccc1OCC(=O)Nc1ccc(S(=O)(=O)Nc2nc(C)cc(C)n2)cc1
 : -12	/	/	/	/	?	12	95*	-5	/
> CC(CNC(=O)c1ccccc1Cl)NC(=O)c1ccccc1Cl (centres undefined)
 : -16	1.9	7	8	0.6	3.1	-5	-4	/	i
> COC(=O)C(Cc1ccccc1)NC(=O)C(CC(C)C)NC(=O)OC(C)(C)C (centres undefined)
 : -4	/	/	/	/	-3.0	-4	26	/	/
> CCOP(=O)(c1ccccc1)C1(C#N)CC1 (centres undefined)
 : -10	-0.9	28	11	-1.6	-0.4	0	-3	-1	i
> CCCn1cc(SCC(=O)NCC2CCCO2)c2ccccc21 (centres undefined)
 : 5	-4.4	-1	-3	-2.3	0.5	2	7	-6	i
> O=C(Nc1ccccc1N1CCOCC1)c1cc(=O)[nH]c2ccccc12
 : /	2.0	-3	1	4.5	/	/	2	-4	i
> Cc1[nH]c2c(C)cccc2c1CCNC(=O)C1CCCCC1C(=O)OCC(F)(F)F (centres undefined)
 : 7	/	/	/	/	-3.3	-1	8	-2	/
> CCOc1cc(C2C(C(=O)c3ccco3)=C(O)C(=O)N2CC2CCCO2)ccc1O (centres undefined)
 : -22	-7.7	8	6	-0.8	0.4	-4	15	-3	i
> O=C(CCCN1C(=O)c2ccccc2C1=O)OC1CSCC1NC(=O)c1ccccc1 (centres undefined)
 : 0	/	/	/	/	9.0	1	-7	5	/
> CSc1ccccc1NC(=O)c1cc(C)on1
 : -2	/	/	/	/	-0.5	2	4	-2	/
> Cc1ccc(C(=O)Nc2cccc(C(F)(F)F)c2)cc1Nc1cncnc1
 : 28	9.1&2.1	-25&-5	-39&12	-2.1&-10	-2.7	-16	-6	-9	i
> CCN1C(=O)/C(=C/c2ccc(OCc3ccc(C(=O)O)cc3)c(Cl)c2)NC1=S
 : -8	0.9	-12	-10	5.9	-3.1	0	26	-8	i
> c1ccc(OCc2nnnn2-c2ccccc2)cc1
 : -4	2.9	16	24	9.9	0.2	-26	-4	-6	i
> COc1ccc(/C=N\NC(=O)C2C(=O)NCC2c2ccccc2)cc1O (centres undefined)
 : -17	/	/	/	/	?	3	67	3	/
> O=C(Nc1ccccc1C(F)(F)F)N1CCN(c2ccccn2)CC1
 : -1	0.2	5	9	-1.0	3.4	-3	/	-9	i
> Cc1cc(C)n(-c2cccc(Cl)c2C#N)n1
 : -12	0.3	/	/	/	?	-9	-6	/	i
> O=C(NNC(=O)c1csc(N2CCOCC2)n1)c1cccnc1
 : ?	-12	2	10	-1.7	-5.2	-4	2	-4	i
> CN(C)CCCN=C(NO)c1ccc(Cl)cc1Cl
 : 27	-6.4	22	-2	2.8	0.1	0	13	2	i
> O=C(CCNS(=O)(=O)c1ccc(Br)cc1)Nc1cccc(F)c1
 : 2	-2.0	0	-22	0.1	0.7	4	/	-2	i
> Cc1cccc(S(=O)(=O)N2CCn3cccc3C2C)c1 (centres undefined)
 : /	-17	6	8	3.7	/	/	-1	2	i
> Cc1ccccc1OCc1nnc(SCC(=O)N2CCc3ccccc32)n1C
 : 8	/	/	/	/	12	-5	-22	-2	/

Assay outcomes deposited in PubChem BioAssay by Broad Institute.

Only part of the results is shown. The share of hits here may be higher or lower than overall.
